ALR H2O2 inh: inhibitors of human sulfhydryl oxidase ALR; hit rate 3.8% among 290,000; inhibition, % (concentration not given with the values); purified ALR, DTT oxidation, H2O2 HRP-luminol luminescence; P55789; AID 485317;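 active = mean and each replicate at 75% or more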;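 also: stock transfer was 7.5 nL into about 7.5 µL; 0% = neutral wells and 100% = wells with inactivated enzyme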
Target sequence (P55789 whole entry, looked up): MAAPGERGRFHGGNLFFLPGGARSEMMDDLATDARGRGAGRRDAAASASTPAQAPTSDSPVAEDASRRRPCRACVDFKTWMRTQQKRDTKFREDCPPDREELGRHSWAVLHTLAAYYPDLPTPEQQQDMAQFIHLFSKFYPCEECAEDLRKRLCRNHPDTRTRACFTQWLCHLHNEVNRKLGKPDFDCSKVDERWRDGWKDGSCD
rRNA inh HTS: inhibits bacterial ribosomal RNA function over humanized ribosomes. hit rate 1.6% among 350,000. AID 720706. GFP signal change (wild-type ribosome), % (no concentration beside the values). E. coli WT GFP vs humanized-ribosome RFP mutants, fluorescence, 24 h; stronger effect = lower value; DMSO median 0, no signal -100;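 active = significant combined selectivity score with lowered wild-type GFP, culture density cut under 30%, mutant RFP and density less affected; inactive = any of these conditions unmet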; also: one replicate is shown; some compounds called inactive have numbers as strong as hits
HNF4A DNA FP: change in binding of human HNF4 alpha to DNA. HNF4a-FITC DNA binding, fluorescence polarization, 1 h. activity change, % at 10 µM. hit rate 0.3% among 360,000; in the data active = activity change above about 30%, passing the limit was not always enough;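 also: controls were the assay level and a saturating level of protein; the project sought stronger binding though the title names inhibitors; some compounds called inactive have numbers as strong as hits; positive values seem to mean higher polarization but the record does not say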
Target sequence (P41235 whole entry, looked up): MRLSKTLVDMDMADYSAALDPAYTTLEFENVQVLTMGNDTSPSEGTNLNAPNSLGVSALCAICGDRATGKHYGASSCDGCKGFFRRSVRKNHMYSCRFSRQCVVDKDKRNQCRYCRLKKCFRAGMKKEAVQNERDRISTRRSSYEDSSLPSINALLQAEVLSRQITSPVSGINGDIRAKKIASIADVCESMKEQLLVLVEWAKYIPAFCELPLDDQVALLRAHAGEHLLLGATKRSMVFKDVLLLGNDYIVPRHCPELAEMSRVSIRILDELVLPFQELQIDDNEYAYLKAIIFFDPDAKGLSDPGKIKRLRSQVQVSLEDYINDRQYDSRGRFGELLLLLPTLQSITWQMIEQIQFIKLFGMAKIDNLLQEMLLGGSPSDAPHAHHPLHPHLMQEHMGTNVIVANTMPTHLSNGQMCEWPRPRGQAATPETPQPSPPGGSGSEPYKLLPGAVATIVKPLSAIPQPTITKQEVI
E coli growth: blocks Escherichia coli growth | OD600, 23 h; stronger effect = lower value | OD600 absorbance (no concentration beside the values) | hit rate 0.21% among 330,000 | AID 1053175;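 active = OD600 absorbance below the run mean of sample wells minus 3.6 SD, in any replicate, cut at about 0.56 in these data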;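 also: stock transfer was 300 nL into about 60 µL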
FGF22 binding: binders of recombinant human FGF22 by thermal shift; SYPRO orange fluorescence; percent of sucrose octasulfate shift, DMSO zero; calls only at 9.99 µM; hit rate 1.5% among 340,000;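 active = melting point raised past a set limit in the mean and every replicate; three in four hits are not shown here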
B2AR ag: human beta-2 adrenergic receptor agonism by FAP; P07550; Am2.2-beta2AR cells, FAP receptor internalization, flow cytometry; reference of the scale not given here; response, % (no concentration beside the values); hit rate 0.43% among 340,000;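 active = response above a set limit, near 3 SD of response in nonfluorescent compounds, cut at about 42% in these data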;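 also: stock transfer was 100 nL into about 11 µL; a reference agonist was the positive control; negative values mostly stem from fluorescent compounds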
Target sequence (P07550 whole entry, looked up): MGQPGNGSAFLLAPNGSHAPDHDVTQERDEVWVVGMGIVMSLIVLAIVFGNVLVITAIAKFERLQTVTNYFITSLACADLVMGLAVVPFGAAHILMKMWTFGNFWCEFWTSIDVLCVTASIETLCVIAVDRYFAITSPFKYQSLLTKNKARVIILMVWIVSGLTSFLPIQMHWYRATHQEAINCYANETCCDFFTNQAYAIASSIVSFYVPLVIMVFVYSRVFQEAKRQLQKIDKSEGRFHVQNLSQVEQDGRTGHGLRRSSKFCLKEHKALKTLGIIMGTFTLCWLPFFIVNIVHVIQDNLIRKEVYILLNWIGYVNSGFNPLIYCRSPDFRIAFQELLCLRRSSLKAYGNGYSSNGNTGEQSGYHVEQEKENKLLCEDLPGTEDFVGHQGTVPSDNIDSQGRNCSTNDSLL
UCH37 DUB inh: human UCH37 deubiquitinating enzyme inhibition. Q9Y5K5. purified proteasome/UCH37, Ub-AMC cleavage fluorescence. inhibition, % (test concentration not listed). hit rate 0.33% among 330,000;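 active = mean of two replicates above 20%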;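 also: 0% = compound-free wells with enzyme and 100% = wells lacking proteasome; stock transfer was 100 nL into about 20 µL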
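assay system = human UCH37 enzyme supplied as purified proteasome complex | amount = proteasome at 0.15 nM in the dispensed enzyme solution | schedule = 30 min compound-proteasome preincubation then 25 min substrate reaction, room temperature | measured by = fluorescence, ex 355 nm, em 460 nm | benchmarks = no-proteasome wells (full inhibition) and compound-free wells (no inhibition)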
rRNA inh HTS OD600: further read-out of rRNA inh HTS, marked with its call; OD600 change, %; measured here: OD600 growth;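 optical density of the mix in the first replicate; 0 = DMSO median and -100 = no signal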
rRNA inh HTS RFP: further read-out of rRNA inh HTS, marked with its call; RFP signal change, %; measured here: RFP humanized mutant strains;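 first replicate; 0 = DMSO median and -100 = no signal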
* = called active by the depositor; i = inactive; · = not tested or not shown; + = active, no number. This is a subset; count on the stated rates, not on these rows.

SMILES	ALR H2O2 inh	rRNA inh HTS	rRNA inh HTS OD600	rRNA inh HTS RFP	HNF4A DNA FP	E coli growth	FGF22 binding	B2AR ag	UCH37 DUB inh
COC(=O)c1ccc2c(=O)n(CCCCCC(=O)NCc3ccccc3)c(=O)[nH]c2c1	·	·	·	·	4.9	0.71	·	4	-39
CCN(CC)C(=O)Cn1cc(S(=O)(=O)CC(=O)NCc2ccc(C)cc2)c2ccccc21	·	9	5	-1.0	-1.4	0.73	i	-1	1.5
COC(=O)c1ccc(NC(=S)N2CCN(Cc3ccccc3OC)CC2)cc1	6	-5	-1	-0.2	2.3	0.66	i	-4	6.1
CC(C(=O)Nc1cc([N+](=O)[O-])ccc1Cl)N1CCN(c2ccccc2O)CC1 (stereo not drawn)	26	·	·	·	2.1	0.69	·	-9	6.2
Cc1ccccc1C(=O)N1CCN(c2ccc(NC(=O)c3cccnc3)cc2)CC1	·	5	10	-4.0	3.0	0.7	i	-4	0.0
CCOc1cc(C(N)=O)cc(Br)c1OCC	-3	-15	-11	-7.1	-0.9	0.68	i	3	1.0
C=CCN(CC=C)C(=O)CN1C(=O)c2ccccc2C1=O	4	·	·	·	1.4	0.64	·	2	1.7
CC1=NN(C(=O)c2ccc(Cl)cc2)C(O)(c2ccccc2)C1 (stereo not drawn)	40	0	-3	0.7	-5.2	·	i	2	·
COc1ccc(OC)c(NC(=S)NCc2cccs2)c1	-25	-3	-5	-7.6	-3.8	0.68	i	4	-0.1
COCCN(C(=O)c1snc(C(N)=O)c1N)C(C(=O)NC1CCCC1)c1cc(OC)c(OC)c(OC)c1 (stereo not drawn)	1	9	8	-2.7	-0.1	0.72	i	9	-66
COc1ccccc1NC(=O)CSc1nnnn1-c1ccc(F)cc1	-3	-9	-9	-4.1	-2.5	0.62	i	-7	2.2
COc1ccccc1C(=O)NNC(=O)C(=O)Nc1cccc(Cl)c1C	·	9	5	0.2	-2.6	·	i	13	·
COc1ccc(/C=C(/NC(=O)c2ccccc2)c2nc3ccc(Cl)cc3[nH]2)cc1OC	-4	-1	16	6.2	0.0	0.69	i	6	-4.5
CCOC(=O)C1CCCN(C2=NC(=O)/C(=C/c3ccc(N(C)C)cc3)S2)C1 (stereo not drawn)	100*	-23	-43	-0.5	139	0.64	+	-128	12
CCCCN(CC)C(=O)c1n[nH]c(=O)c2ccccc12	-11	·	·	·	-8.7	0.64	·	7	0.9
CCC1=NN2C(=N)/C(=C\c3cccn3-c3ccc(C)cc3C)C(=O)N=C2S1	48	-53	-73	-14	2.5	0.69	·	-1	5.5
C=C[C@@H](C)N(Cc1ccc(OC)cc1)S(=O)(=O)N(Cc1ccccc1)[C@H](C=C)C(C)C	2	1	7	-4.2	1.8	·	i	8	1.3
CCC(=O)Nc1cc(C(=O)O)ccc1Sc1ccccc1	-11	0	2	-8.5	2.5	0.72	i	0	3.5
Cn1c(C(=O)O)c(CC(=O)Nc2ccccc2F)c2ccccc21	-9	·	·	·	-2.8	0.68	·	1	2.9
COC(=O)c1sc2ncccc2c1OCc1ccccc1Cl	·	·	·	·	3.0	0.74	·	7	-2.2
NCCCC[C@@H]1NC(=O)c2cc([N+](=O)[O-])cc(I)c2SC[C@@H](C(N)=O)NC(=O)[C@H](Cc2ccc(O)cc2)NC1=O	-49	·	·	·	-4.2	·	·	-6	0.4
COc1ccc(C2=Nc3ccccc3NC(=O)C2N(C(=O)c2cnc(C)cn2)c2ccc(N3CCOCC3)cc2)cc1 (stereo not drawn)	·	8	0	7.6	-1.7	·	i	·	·
CC(C)C[C@H]1CN=C(N(C)C)N1CC(C)C	-1	16	21	-3.4	-8.3	·	i	10	0.2
CCOC(=O)c1c(C)nc2sc(C(N)=O)c(N)c2c1-c1ccccc1	-14	·	·	·	-0.4	0.71	·	5	-6.1
C=CCc1ccccc1OCC(O)CN1CCN(c2ccc(C)cc2)CC1 (stereo not drawn)	52	-19	-18	11	0.3	0.6	i	-8	4.3
COc1cc(OC)cc(-c2c(Sc3ccccc3)c3cc(-c4cnc(OC)nc4)ccc3n2C)c1	·	7	5	-2.5	-0.1	·	i	·	·
COc1ccc(CNC(=S)Nc2cccc(C)c2)cc1	4	·	·	·	1.2	0.72	·	1	2.2
O=C(NNc1ccc(-c2csnn2)cc1)c1cc(Cl)cc(Cl)c1	43	3	-7	16	-0.8	0.6	i	-10	3.0
CCN(CC)S(=O)(=O)c1ccc(NC=C(C#N)C#N)cc1	-7	3	5	-2.1	-1.7	0.64	i	-4	6.4
Cc1ccc(NC(=O)NNC(=O)COc2ccc3ccccc3c2)cc1	-2	5	14	2.0	-1.6	0.68	i	5	1.7
O=C(NCc1cccnc1)c1csc2c1CCCC2	-97	·	·	·	1.4	·	·	-3	0.9
c1ccc(CO/N=C(\c2ccc(C3CC3)nc2)C2CC2)cc1	-2	-19	-20	-6.0	-0.5	·	i	-1	·
CCOC(=O)CSc1nc(N)nc(C)c1Br	-1	·	·	·	-2.8	0.77	·	5	5.9
Cc1ccc(-c2nc3ccccc3c(=O)o2)cc1	·	2	-8	-3.6	5.3	0.66	i	-5	-1.9
CCn1nc(NC(=O)C(C)C)c2cc3cccc(C)c3nc21	·	2	9	3.6	2.2	0.64	i	-11	-193
CCOC(=O)[C@]12CCC=C1N(CCC1=CCCCC1)C(=O)[C@H](CC(=O)NCc1ccc(C)o1)C2	·	13	16	2.4	1.6	·	i	·	·
Cn1nc(C(=O)Nc2ccc(S(=O)(=O)NCc3ccco3)cc2)c2ccccc2c1=O	1	1	10	8.6	·	0.71	i	·	0.9
C#CCOCCOCCOCCNc1nc(N2CCN(C(=O)[C@H]([C@@H](C)CC)n3cc(CCC(=O)O)nn3)CC2)nc(N2CCN(C(=O)[C@H](CCCCN)n3cc(CCCC)nn3)CC2)n1	·	9	10	2.3	-4.3	·	i	-1	·
COc1ccc(NC(=O)C2CCCN(c3cnccn3)C2)c(OC)c1 (stereo not drawn)	-10	6	6	-4.3	-17	0.7	i	3	-4.1
O=C(CSC1=NC2(CCCCC2)N=C1c1ccccc1)Nc1ccc2c(c1)OCCO2	98*	1	4	-3.0	-1.7	0.75	i	-7	0.0

Compounds shown so far that contain a thiophene ring, fused or not (4):
SMILES	ALR H2O2 inh	rRNA inh HTS	rRNA inh HTS OD600	rRNA inh HTS RFP	HNF4A DNA FP	E coli growth	FGF22 binding	B2AR ag	UCH37 DUB inh
COc1ccc(OC)c(NC(=S)NCc2cccs2)c1	-25	-3	-5	-7.6	-3.8	0.68	i	4	-0.1
COC(=O)c1sc2ncccc2c1OCc1ccccc1Cl	·	·	·	·	3.0	0.74	·	7	-2.2
CCOC(=O)c1c(C)nc2sc(C(N)=O)c(N)c2c1-c1ccccc1	-14	·	·	·	-0.4	0.71	·	5	-6.1
O=C(NCc1cccnc1)c1csc2c1CCCC2	-97	·	·	·	1.4	·	·	-3	0.9

Following part:
SMILES	ALR H2O2 inh	rRNA inh HTS	rRNA inh HTS OD600	rRNA inh HTS RFP	HNF4A DNA FP	E coli growth	FGF22 binding	B2AR ag	UCH37 DUB inh
COc1ccc2c(c1)C(CC(=O)NN)CCC2 (stereo not drawn)	·	7	10	4.2	6.0	0.69	i	1	3.1
CC(C)(C)NC(=O)C(c1ccncc1)n1c(-c2ccc(C(F)(F)F)cc2)nc2ccccc21 (stereo not drawn)	·	-31	-81	-22	2.6	·	i	·	·
CC(=O)C1=C(O)C(=O)N(c2ccc(O)cc2)C1c1cccc(F)c1 (stereo not drawn)	82*	3	9	-0.3	2.3	0.7	i	9	2.5
O=C1C=C(N2CCOCC2)CCC1	-26	·	·	·	-3.0	0.69	·	-1	2.1
CCC(=O)Nc1ccc(C(=O)NNC(=O)C(c2ccccc2)c2ccccc2)cc1	-5	·	·	·	1.7	0.69	·	-13	-1.5
CC(=O)c1cccc(NC(=O)CCCNC(=O)c2ccc(Cl)cc2)c1	1	3	12	-1.4	3.8	0.68	i	-5	3.1
CC(=O)Nc1nc(SCCCc2ccccc2)n[nH]1	-1	·	·	·	-3.2	0.76	·	-3	4.6
CC(=O)c1ccc(NC(=O)Nc2sc(NS(=O)(=O)c3ccccc3)nc2C)cc1	6	10	14	-0.2	-0.3	0.69	i	3	4.3
Cc1cccc2sc(NC(=O)CN(C)S(=O)(=O)c3ccc(Br)s3)nc12	0	·	·	·	1.9	0.78	·	51*	3.4
CCOC(=O)c1c(C)nc2ccccn12	-2	·	·	·	4.8	0.65	·	2	2.8
COc1cc(/C=C/C(=O)OCC(=O)Nc2oc(C)c3c(C)n[nH]c(=O)c23)ccc1OC(F)F	-7	8	7	-3.7	0.2	0.69	·	4	2.7
COC(=O)c1ccc2c(c1)NC(=O)C1CCCN21 (stereo not drawn)	-8	·	·	·	10	0.79	·	·	1.2
Cn1ccc(C(=O)OCC(=O)Nc2ccccc2Cl)n1	·	6	14	2.3	1.3	0.69	i	-1	6.1
Cc1nn(-c2ccccc2)nc1CNC(=O)C(C)Cc1ccccc1 (stereo not drawn)	-14	-1	-8	0.9	-0.6	0.68	i	-3	2.6
C=CCNC(=S)N/N=C/c1ccc(-c2ccc(Cl)cc2Cl)o1	-3	0	5	2.5	3.7	·	i	-1	·
CC(C)n1c(SCC(=O)N2c3ccccc3Sc3ccccc32)nc2c1c(=O)n(C)c(=O)n2C	·	·	·	·	-5.3	0.67	·	11	4.7
COc1ccccc1CNC(=O)CCCN1C(=O)NC2(CCCC2)C1=O	·	4	1	-0.3	0.1	0.65	i	-4	4.6
COc1ccc(Cn2nnc(C(=O)Nc3ccc(F)cc3)c2N)cc1	-10	·	·	·	1.0	0.68	·	-1	0.4
Cc1ccc(S(=O)(=O)N2CCN(C(=O)COC(=O)c3ccc([N+](=O)[O-])o3)CC2)c(C)c1	·	-4	1	-1.6	-2.6	0.66	i	0	9.3
CN(CCC#N)C(=O)COC(=O)c1c2c(nc3ccccc13)/C(=C\c1ccco1)CC2	·	2	23	4.4	-27	0.63	i	10	-24
COc1ccc2c(c1)C(=NNc1ccc(C(=O)O)cc1)c1cc(OC)ccc1-2	2	2	8	3.2	-4.2	·	i	27	·
COc1ccc(C(=O)Nc2ccc(S(=O)(=O)Nc3cnc4ccccc4n3)cc2)cc1	5	-8	-7	-0.8	1.5	0.68	i	2	-4.2
CC1CN(C(=O)CCCN2C(=O)c3ccccc3C2=O)CC(C)O1 (stereo not drawn)	-1	10	5	3.0	-2.9	0.67	i	0	4.9
CCS(=O)(=O)CCSC1OC(COC(C)=O)C(OC(C)=O)C(OC(C)=O)C1OC(C)=O (stereo not drawn)	-2	14	9	7.0	1.0	0.72	i	4	4.5
COC(=O)c1sc(S(=O)(=O)NCCC(=O)O)c(C(=O)OC)c1C	-5	14	17	3.3	2.5	0.68	·	2	3.3
Cc1c(C(C)C[C@H](C)O)oc(=O)c2c1Oc1c(C)c(C(C)C[C@H](C)O)oc(=O)c1C2 (stereo partly drawn)	0	-1	18	11	1.5	·	i	-3	0.7
O=C1C2CCCN2C(c2ccc(F)cc2)N1c1nccs1 (stereo not drawn)	0	·	·	·	-1.8	0.67	·	-1	4.0
OC(COc1cccc2ccccc12)CN1CCN(c2ccccc2)CC1 (stereo not drawn)	2	-6	-27	-0.4	-1.8	0.61	i	-15	3.4

Entries of single compounds, quoted from the list. Values in the order: ALR H2O2 inh, rRNA inh HTS, rRNA inh HTS OD600, rRNA inh HTS RFP, HNF4A DNA FP, E coli growth, FGF22 binding, B2AR ag, UCH37 DUB inh
`COc1ccc2c(c1)C(=NNc1ccc(C(=O)O)cc1)c1cc(OC)ccc1-2` is listed with 2, 2, 8, 3.2, -4.2, ·, i, 27, ·
`OC(COc1cccc2ccccc12)CN1CCN(c2ccccc2)CC1` (stereo not drawn) is listed with 2, -6, -27, -0.4, -1.8, 0.61, i, -15, 3.4

High-throughput results (PubChem BioAssay)
